# Source: PubChem BioAssay
# A488 fluor: A488 region autofluorescence; compound autofluorescence, A488 spectral region, dye equivalency; active compounds read high; max dye equivalency, M; 0.1% of 59,000 active; AID 591; active = above 10 nM dye equivalent; inconclusive = 1 to 10 nM; inactive = 1 nM or less; about half of its hits are not listed in these tables;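 further: highest value over a series up to 38 µM; compound alone in buffer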
#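 Autofluorescence read at ex 480/em 540 nm after 15 min RT in 100 mM Tris pH 8.0; compound signal normalized to A488 standard series on each plate, reported as dye-equivalent concentration at each test concentration.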
# AID923: qHTS Assay for Allosteric/Competitive Inhibitors of Caspase-1: Spectroscopic Profiling in AFC Spectral Region. Potency, µM (series often up to 57.5 µM), for the others: at the top dose fluorescence increase, actives largely listed as activators. compound fluorescence, AFC spectral region (405/520 nm); almost no hit is shown here. AID 923, 2007. 1.1% of 75,000 active; active means well fitted activation curve with a large enough effect; inconclusive means small, poorly fitted or top-dose-only effect;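 further: potency means the concentration at half of the fitted maximal effect; 0% is about no effect; scaled to a free AFC standard on each plate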
#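 Titrations up to 57 uM read every 20 sec for 3 min (405/520 nm) with 50 nM caspase 1 and 5 uM Ac-WEHD-AFC, pH 7.5 HEPES buffer. Fluorescence-vs-time intercept gave baseline, scaled against on-plate AFC standard.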
# TSHR ag: agonists of human thyroid stimulating hormone receptor; HEK293-CNG-TSHR cells (CNG channel as cAMP sensor), membrane potential dye, cAMP; AID 926; P16473; Potency, µM (series often up to 57.1 µM), without a hit: top-dose activation, most hits filed as activators; 0.48% of 73,000 active; active = well fitted activation curve of enough size with the parental cells flat; inconclusive = any curve in the parental cells; inactive = parental cells flat and receptor cells flat or falling; further: potency means the concentration at half of the fitted maximal effect; % of control where 0% means no effect; weak receptor curves with flat parental cells got no call and are not listed
# Target sequence (P16473 whole entry, looked up): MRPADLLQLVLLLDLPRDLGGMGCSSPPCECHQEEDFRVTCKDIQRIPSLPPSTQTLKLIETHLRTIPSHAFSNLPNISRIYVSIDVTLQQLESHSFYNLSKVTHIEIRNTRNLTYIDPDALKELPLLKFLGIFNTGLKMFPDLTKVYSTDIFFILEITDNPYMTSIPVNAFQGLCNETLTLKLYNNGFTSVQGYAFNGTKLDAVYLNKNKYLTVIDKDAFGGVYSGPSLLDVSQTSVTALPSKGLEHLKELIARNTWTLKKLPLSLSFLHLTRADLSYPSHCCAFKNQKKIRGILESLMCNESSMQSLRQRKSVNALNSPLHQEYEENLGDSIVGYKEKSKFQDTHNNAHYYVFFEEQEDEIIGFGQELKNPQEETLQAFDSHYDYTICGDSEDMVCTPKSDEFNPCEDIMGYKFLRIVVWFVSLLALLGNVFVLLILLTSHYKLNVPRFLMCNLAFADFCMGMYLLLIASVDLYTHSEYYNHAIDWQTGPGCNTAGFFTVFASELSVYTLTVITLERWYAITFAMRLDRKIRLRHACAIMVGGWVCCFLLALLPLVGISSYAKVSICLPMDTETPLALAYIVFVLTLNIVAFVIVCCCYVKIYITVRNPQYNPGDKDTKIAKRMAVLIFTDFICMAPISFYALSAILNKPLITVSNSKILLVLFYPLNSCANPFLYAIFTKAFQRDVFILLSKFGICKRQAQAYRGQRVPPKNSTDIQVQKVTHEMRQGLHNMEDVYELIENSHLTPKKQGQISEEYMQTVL
#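 HEK 293 cells stably expressing TSHR and a modified CNG channel, with CNG-only parental cells as counterscreen, were preloaded 60 min at room temperature with membrane potential dye containing 100 uM RO 20-1724. Compound exposure was 30 min, and depolarization was read as fluorescence at 590 nm.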
# Resorufin fluor: compound fluoresces in the resorufin spectral region | Compound fluorescence, resorufin region 547/598 nm, buffer; active compounds read high | max dye-equivalent concentration, M | 0.04% of 59,000 active | AID 588; active = above 10 nM dye equivalent; inconclusive = 1 to 10 nM; inactive = 1 nM or less; a few of its hits are not listed in these tables; further: highest value over a series up to 38 µM
#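 Compounds in 100 mM Tris, pH 8.0, incubated 15 min at room temperature, then fluorescence read at 547 nm excitation/598 nm emission. Signal converted to dye-equivalent concentration via an on-plate six-point resorufin standard curve, per compound concentration.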
# A647 autofl: compound autofluorescence in A647 spectral region; 59,000 tested, under 10 active; Compound fluorescence, A647 channel (570/671 nm), Tris buffer; max dye-equivalent concentration, M; active means above 1 µM dye equivalent; inconclusive means 0.1 to 1 µM; inactive means 0.1 µM or less;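 further: values scaled relative to a standard on each plate; highest value over a series up to 38 µM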
#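 Fluorescence read (570 nm ex, 671 nm em) after 15 min RT incubation of compounds in 100 mM Tris buffer, pH 8.0; values expressed as dye-equivalent concentration against a six-point A647 standard series on each plate.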
# Starred values were filed as active, the others as inactive; i = inactive; ? = inconclusive; nt = not tested or not shown; [ ] = remark or other dose. Some of the compounds tested; count on the stated rates, not on these rows.
# The line under a structure holds: AID923 | Resorufin fluor | TSHR ag | A647 autofl | A488 fluor
> CC1(C)Cc2ccccc2-c2nnc(SCC(=O)Nc3nc4ccccc4s3)n21
    2.2% | i | ? | 1e-09 | i
> CCCn1c(-c2ccc(F)cc2)nc2c(NCCN3CCCC3)nc(C)nc21
    0.5% | nt | ? | nt | nt
> O=C(CCC1CCCC1)N1CCN(C(=O)COc2ccccc2)CC1
    0.9% | nt | 21.0% | nt | nt
> Cn1c(C(=O)N2CCN(c3ccccn3)CC2)cc2c(=O)n(C)c3ccccc3c21
    0.8% | nt | 4.7% | nt | nt
> Cc1cccc(NC(=O)N2CCC(NC(=O)c3ccccc3C)CC2)c1
    0.3% | i | 1.2% | 2.45e-08 | i
> CCC(=O)N1CCCc2cc(S(=O)(=O)N3CCN(C4CCCCC4)CC3)ccc21
    1.1% | i | -4.0% | 4.6e-09 | i
> CN(C)S(=O)(=O)c1cccc(C(=O)OCC(=O)Nc2sccc2C(N)=O)c1
    1.2% | i | 17.9% | 1.2e-09 | i
> c1ccc(-c2ncnc3nc4n(c23)CCC4)cc1
    -1.7% | i | -0.8% | 3.76e-08 | i
> COc1cccc(CN(C)C(=O)c2ccc(S(=O)(=O)N3CCCC3)cc2)c1OC
    -0.2% | i | 9.0% | 1e-09 | i
> Oc1cc(Cc2ccccc2)cnc1CN1CCCCC1
    -1.8% | nt | 11.4% | nt | nt
> COc1ccc(NC(=O)c2c(OC)cccc2OC)c(OC)c1
    -0.8% | i | -1.4% | 1.4e-09 | i
> CCCCC#Cc1nc(NC)c2ncn([C@@H]3O[C@@H](CO)[C@H](O)[C@H]3O)c2n1
    -2.5% | nt | 5.8% | nt | nt
> CS(=O)(=O)Nc1cccc(-c2cncnc2NCc2cccnc2)c1
    3.5% | i | ? | 1e-09 | i
> O=C(O)c1cc2c(s1)-c1ccccc1OC2
    0.2% | i | 14.2% | 2.12e-08 | i
> Cc1cc(=S)[nH]c2ccccc12
    1.5% | i | 5.3% | 3.75e-08 | i
> Cc1ccc2c(c1)c1ncnc(N3CCOCC3)c1n2C
    1.2% | i | 18.4% | 6.6e-09 | i
> O=C(Nc1ccc(Cl)cc1C(=O)NCC1CCCO1)c1ccco1 (configuration not stated)
    -2.9% | i | nt | 6.3e-09 | i
> CCOC(=O)CSc1nnnn1-c1cc(OC)ccc1OC
    -1.1% | i | 7.8% | 8.1e-09 | i
> CCCn1nnc(NC(=O)c2cccc(OCC(C)C)c2)n1
    -1.0% | i | ? | 3.46e-08 | i
> CCN(CC)c1ccc2cc(C(=O)Nc3ccccn3)c(=O)oc2c1
    nt | i | nt | 4.33e-08 | 2.6e-08M*
> CCc1nc(SCc2cccnc2)c(C#N)cc1C
    nt | i | nt | 1e-09 | i
> Cc1cc(C)c2nc(N3CCCN(C(=O)c4cnccn4)CC3)c(C#N)cc2c1
    8.6% | i | nt | 1.56e-08 | i
> O=c1c(F)cn(C2CCCO2)c(=O)n1Cc1c(F)cccc1Cl (configuration not stated)
    -2.2% | i | 2.9% | 6.23e-08 | i
> Cc1nc2cc(Cl)c(Cl)cc2nc1C
    1.4% | i | 5.3% | 1.24e-08 | i
> O=C(Oc1cccc(Br)c1)c1cccnc1
    -3.8% | i | ? | 1e-09 | i
> CCn1c(=O)c(C2=NS(=O)(=O)c3ccccc3N2)c(O)c2ccccc21
    -2.1% | i | 2.7% | 2.19e-08 | i
> O=C(CC1(O)C(=O)Nc2ccccc21)c1ccccc1 (configuration not stated)
    0.1% | nt | -1.9% | nt | nt
> O=C(O)CSc1nnc(-c2ccccc2O)n1Cc1ccccc1
    1.0% | i | 0.6% | 2.2e-09 | i
> O=C(Nc1ccccc1-c1ccccc1)c1cnccn1
    0.8% | i | ? | 1e-09 | i
> O=C(c1ccco1)N1CCN=C1SCc1ccccc1F
    -0.5% | nt | 11.8% | nt | nt
> Cc1cccc(-n2ccnc2SCC(=O)Nc2nccs2)c1
    -0.9% | i | 3.3%[11.4 µM] | 7.8e-09 | i
> Cc1onc(-c2ccccc2Cl)c1C(=O)N1CCCc2ccccc21
    1.6% | nt | 28.0% | nt | nt
> Cc1oc(C(C)(C)C)cc1C(=O)NCC(=O)NCC(=O)O
    -0.2% | i | -0.7% | 4.4e-09 | i
> O=C(CSc1nc2ccccc2s1)NC(=O)NCc1ccco1
    1.8% | i | ? | 3.94e-08 | i
> COC(=O)c1ccc2nc(NC(=O)CN3C(=O)CCC3=O)sc2c1
    2.5% | i | -13.9% | 1e-09 | i
> O=C(COc1cccc2ccccc12)N1CCN(c2ccccn2)CC1
    0.9% | i | nt | 1.9e-09 | i
> c1ccc2sc(SCN(C3CCCCC3)C3CCCCC3)nc2c1
    -1.8%[11.5 µM] | i | 0.0%[11.4 µM] | 2.23e-08 | i
> CC(C)N(CCc1ccncc1)C(=O)Nc1ccc(F)cc1
    1.9% | nt | 9.9% | nt | nt
> CCN(CC)CCCN(Cc1cc2cc3c(cc2[nH]c1=O)OCO3)C(=O)Nc1ccccc1OC
    0.8% | i | -2.0% | 1.02e-08 | i
> Fc1ccc(CSc2nncn2NCc2ccc3c(c2)OCO3)cc1
    0.7% | i | 12.0% | 1e-09 | i
> CO[C@H]1COC(=O)[C@H](Cc2ccccc2)NC(=O)C/C=C\[C@@H](C)[C@H](OC)COC(=O)C/C=C\[C@@H]1C
    1.8%[11.5 µM] | nt | 10.2%[11.4 µM] | nt | nt
> Cc1ccc(S(=O)(=O)N2CCN(C(=O)N3CCOCC3)C2C)cc1 (configuration not stated)
    1.8% | i | -2.7% | 1e-09 | i
> CC(C)(C)NCCCCOc1ccc(F)cc1
    0.8% | nt | 2.7% | nt | nt
> Cc1cc(C)n(/N=C/c2c[nH]c3ccccc23)c(=O)c1
    1.5% | nt | -1.2%[11.4 µM] | nt | nt
> COc1cc(C2C(C(C)=O)=C(O)C(=O)N2CCc2c[nH]c3ccccc23)ccc1O (configuration not stated)
    0.7% | i | -1.4% | 1.06e-08 | i
> COc1ccc(OC)c(NC(=O)Cn2cc(C#N)c3ccccc32)c1
    -1.0% | i | 3.3% | 1e-09 | i
> Cc1noc(C)c1S(=O)(=O)Nc1ccc(C(=O)NC2CCCCC2C)cc1 (configuration not stated)
    1.5% | i | -4.3% | 1e-09 | i
> COc1cccc(NC(=O)CSc2nnnn2C(C)C)c1
    0.8% | i | -5.7% | 6.3e-09 | i
> CCCS(=O)(=O)N1CCCC(C(=O)NCc2ccc(C)cc2)C1 (configuration not stated)
    0.2% | i | -0.9% | 9.3e-09 | i
> COc1ccccc1C1C2C(=O)N(c3ccccc3)C(=O)C2ON1c1ccccc1 (configuration not stated)
    0.5% | i | 17.1% | 2.5e-08 | i
> CC1(C)Cc2c(c(N3CCOCC3)nc3sc4c(NCc5ccco5)nnnc4c23)CS1
    nt | i | nt | 1e-09 | i
> CCC1SC2=NC(C)=C(C(=O)OC)C(c3ccc(C)cc3)N2C1=O (configuration not stated)
    1.0% | i | ? | 1.4e-09 | i
> Cc1oc2ccc(OC(=O)N3CCOCC3)cc2c1C(=O)OC(C)C
    -1.1% | nt | 20.9% | nt | nt
> N#Cc1c(NC(=O)CCn2cnc3ccccc3c2=O)oc(-c2ccccc2)c1-c1ccccc1
    -0.7% | i | ? | 1e-09 | i
> COC(=O)CC1C(=O)NCCN1C(=O)CSc1nnc(Nc2ccc(OC)cc2)s1 (configuration not stated)
    0.4% | i | -0.7% | 2.77e-08 | i
> O=S(=O)(c1ccccc1)N1CCC2(CCN(Cc3ccccc3)CC2)CC1
    0.9% | i | -1.7% | 4.2e-09 | i
> COc1cccc(-c2nnc(SCc3ccc(C#N)cc3)n2Cc2ccco2)c1
    -1.0% | i | ? | 4.6e-09 | i
> COc1ccc(/C=N/n2cc(-c3ccc(OC)cc3)nc2N)cc1
    -1.1% | nt | 14.4% | nt | nt
> O=C(Nc1nc2c(s1)CCCC2)c1ccc2ncsc2c1
    -2.8% | nt | ? | nt | nt
> O=C1C2=C(Nc3cc([N+](=O)[O-])ccc3N2)O[C@@H]1c1c[nH]c2ccc(COc3ccccc3)cc12
    0.6%[11.5 µM] | i | -0.7%[11.4 µM] | 2.77e-08 | i

# (continued)
# The line under a structure holds: AID923 | Resorufin fluor | TSHR ag | A647 autofl | A488 fluor
> CC1(C)CC2(CC(C)(C)NC(=O)N2)NC(=O)N1
    -0.3% | i | 1.8% | 7.9e-09 | i
> CCC(Oc1ccccc1)C(=O)Nc1nnc(C)s1 (configuration not stated)
    1.8% | i | -6.0% | 1e-09 | i
> CCOC(=O)C(NC(C)=O)C(OC(C)=O)c1cccc(N(CCO)CCO)c1 (configuration not stated)
    4.1% | i | 2.1% | 1.91e-08 | i
> CC(C)(C)c1cc(=O)n2c(C#N)c(C#N)nc2[nH]1
    -0.5% | i | 6.1% | 1e-09 | i
> COc1ccccc1N1CCN(C(=O)c2c(-c3ccccc3)noc2C)CC1
    -1.4% | nt | 11.8% | nt | nt
> CN1CCN(C(=S)c2ccc(N(C)C)cc2)CC1
    -1.2% | i | -2.8% | 1e-09 | i
> CC(C)OC(=O)CSc1nnc(-c2cnccn2)n1C
    -1.6% | i | 4.8% | 3.2e-08 | i
> O=C(CSc1ncccn1)NC(=O)NCc1ccccc1
    0.8% | i | 15.9% | 7.5e-09 | i
> O=C(Nc1ccc(S(=O)(=O)NCc2ccccc2)cc1)Nc1ccc2c(c1)OCO2
    -3.9% | i | -20.9% | 1e-09 | i
> CC1(C)Cc2nc3sc4c(N(CCO)CCO)ncnc4c3cc2CO1
    nt | i | nt | 3.8e-09 | i
> Oc1c(C(c2ccco2)N2CCOCC2)sc2ncnn12 (configuration not stated)
    -4.8% | nt | -8.9% | nt | nt
> O=C(C/C(=N/O)c1ccccc1O)C(F)F
    nt | i | nt | 1e-09 | i
> Cc1ccc2nc(N3CCN(C)CC3)c(C#N)cc2c1
    14.6% | i | ? | 3.4e-09 | i
> CC(=O)Nc1ccc(C(=O)CSc2nnc3scc(-c4ccccc4)n23)cc1
    -0.5% | i | -6.5% | 1e-09 | i
> O=C(CN1C(=O)CCC1=O)Nc1nc(-c2ccccn2)cs1
    -2.3% | nt | -4.8% | nt | nt
> O=C(NCN1CCCCC1)c1cnccn1
    0.0% | i | -1.3% | 1.5e-09 | i
> COc1cc(Br)cc(CN2CCN(C=O)CC2)c1O
    0.6% | nt | 10.3%[11.4 µM] | nt | nt
> Cc1cccc(CNc2cc(-c3cccnc3)ncn2)c1
    -1.6% | i | 27.5% | 2.64e-08 | i
> COCC(=O)N(C)c1nnc(-c2cnc(C)cn2)s1
    1.2% | i | -3.1% | 1.09e-08 | i
> CC1CCCCC1NC(=O)C1CCN(S(=O)(=O)c2ccc3c(c2)CCC(=O)N3)CC1 (configuration not stated)
    1.2% | nt | -4.3% | nt | nt
> CCC(CC)C(=O)NCc1ccccc1Cl
    -0.9% | i | 25.6% | 3.63e-08 | i
> CCn1c(=O)cc(SCC(=O)N2CCN(C(=O)c3ccco3)CC2)c2ccccc21
    -0.2% | i | 1.2% | 2.97e-08 | i
> CC(=O)Nc1nc(C)c(Cc2ccccc2)c(=O)[nH]1
    0.6% | nt | -5.1% | nt | nt
> CCCCCn1c(S(=O)(=O)O)nc2ccccc21
    0.1% | i | 12.1% | 7.8e-09 | i
> CCOC(=O)C1CCN(C(=O)c2cnn3c(C)cc(C)nc23)CC1
    -0.4% | i | -1.6% | 1.8e-09 | i
> CCNc1nc2nonc2nc1NCC
    -0.1% | i | 1.5% | 3e-09 | i
> NC(=O)NC(N)=O
    0.2% | nt | ? | nt | nt
> C=CCn1c(SCc2ccccc2C#N)nnc1-c1ccccc1O
    -2.4% | i | 24.4% | 2.75e-08 | i
> COc1ccc(S(=O)(=O)NCCC(=O)NCc2cccs2)cc1
    3.3% | i | 2.9% | 3.92e-08 | i
> O=C(CSc1nc2ccccc2n1CC(=O)N1CCCC1)Nc1nccs1
    1.1% | i | -0.3% | 6.6e-09 | i
> O=C(NCCCC(=O)N1CCOCC1)c1cccnc1
    1.7% | i | 0.4% | 3.52e-08 | i
